D2 agonist = agonists of human D2 dopamine receptor (beta-arrestin) | P14416 | DiscoveRx PathHunter D2 beta-arrestin, luminescence, 90 min; 100% = 57 uM dopamine signal | activation, % (concentration not given with the values) | hit rate 0.084% among 360,000 | AID 624465; in the data active = activation above about 40%; inconclusive = about 15% to 40%; inactive = below about 15%; note: compound concentration not given in the record; the text of the record calls up to 30% inactive
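DiscoveRx PathHunter D2 beta-arrestin cells (2,100/well) attached overnight, then compound-stimulated 90 min at 37 C in HBSS/10 mM HEPES/0.1% Tween-20 buffer; beta-galactosidase complementation read by luminescence after 1 h at ambient temperature. Dopamine 57 uM final (EC100) as control.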
TRPML1 ag = activates the human TRPML1 channel. Q9GZU1. TRPML1-expressing cells, Ca2+ dye fluorescence, FDSS; host cell line not named in the record; reference of the full effect not given here. activation, % (test concentration not listed). hit rate 0.12% among 410,000. AID 624414; in the data active = activation above about 50%; inconclusive = about 30% to 50%; inactive = below about 30%; note: 0% is about no effect; the text of the record puts the active cut at 80%
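Kinetic FDSS Ca2+ read in Tet-induced TRPML1-DL cells (ABD Ca8 dye plus quencher, 45-90 min RT loading): baseline, then compound, then 110 s agonist window; EC80 agonist 54-4 at 4uM final added afterwards for a 110 s antagonist window.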
Six1-Eya2 blk = Six1/Eya2 interaction inhibition; AlphaScreen GST-Six1/His-Eya2 binding, biochemical; hits give low values; control for the full effect not named in the record; Q15475+O00167; hit rate 0.56% among 360,000; activity change, % (no concentration beside the values); in the data active = activity change below about -65%; inconclusive = about -30% to -65%; inactive = above about -30%; note: % is set by controls: 0 for no effect and ±100 for the full control effect; compound concentration not given in the record
Target sequence (O00167 whole entry, looked up): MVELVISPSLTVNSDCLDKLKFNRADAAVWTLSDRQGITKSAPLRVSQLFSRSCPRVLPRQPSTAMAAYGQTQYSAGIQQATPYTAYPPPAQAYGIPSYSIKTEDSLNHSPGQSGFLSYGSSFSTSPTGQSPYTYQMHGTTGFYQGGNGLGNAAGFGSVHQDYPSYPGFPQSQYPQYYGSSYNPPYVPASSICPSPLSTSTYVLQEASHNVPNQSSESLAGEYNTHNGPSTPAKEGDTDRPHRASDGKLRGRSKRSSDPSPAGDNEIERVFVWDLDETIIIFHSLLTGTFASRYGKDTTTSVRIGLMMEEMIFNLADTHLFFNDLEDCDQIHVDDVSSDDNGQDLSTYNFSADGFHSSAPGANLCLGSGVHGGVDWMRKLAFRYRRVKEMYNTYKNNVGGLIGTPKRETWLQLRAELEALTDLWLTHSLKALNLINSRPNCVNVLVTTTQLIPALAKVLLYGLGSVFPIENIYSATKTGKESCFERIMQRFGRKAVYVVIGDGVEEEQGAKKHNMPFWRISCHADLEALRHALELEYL
Target sequence (Q15475 whole entry, looked up): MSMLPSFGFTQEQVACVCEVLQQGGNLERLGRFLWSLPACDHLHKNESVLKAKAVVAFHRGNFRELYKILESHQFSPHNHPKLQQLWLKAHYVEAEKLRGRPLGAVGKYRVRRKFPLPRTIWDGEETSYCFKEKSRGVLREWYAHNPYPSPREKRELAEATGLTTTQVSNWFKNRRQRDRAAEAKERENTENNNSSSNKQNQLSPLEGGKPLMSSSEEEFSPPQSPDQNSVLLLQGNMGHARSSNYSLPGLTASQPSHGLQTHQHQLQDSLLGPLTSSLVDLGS
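Homogeneous AlphaScreen proximity assay pairing GST-Six1 with His-tagged Eya2 (added as 5X mix: 250 nM and 500 nM) in 50 mM Tris pH 8.0, 300 mM NaCl, 1 mM TCEP. Glutathione donor and nickel acceptor beads; 1 h, 37 °C, dark.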
CtBP-E1A blk = CtBP/E1A binding inhibition. AlphaScreen GST-E1A/His-CtBP binding, 1536-well; hits give low values; control for the full effect not named in the record. activity change, % (no concentration beside the values). hit rate 0.49% among 340,000. AID 651724; in the data active means activity change below about -65%; inconclusive means about -30% to -65%; inactive means above about -30%; note: % is set by controls: 0 for no effect and ±100 for the full control effect; compound concentration not given in the record
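GST-E1A and His-tagged CtBP (125 nM each as 5X stock) were preincubated with pin-transferred compound for 2 h at 37 °C in the dark, then glutathione donor and nickel acceptor beads were added for 1 h before AlphaScreen reading.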
TRPML1 inh = inhibitors of human TRPML1 channel; TRPML1-inducible cells, Ca2+ dye fluorescence, FDSS; hits give low values; inhibition of EC80 agonist-evoked calcium signal; activity change, negative = inhibition, % (no concentration beside the values); hit rate 0.02% among 390,000; Q9GZU1; in the data active means activity change below about -50%; inconclusive means about -30% to -50%; inactive means above about -30%;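 note: stimulus is agonist 54-4 at its EC80 concentration; % is set by controls: 0 for no effect and ±100 for the full control effect; compound concentration not given in the record; the text of the record puts the active cut at -80%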
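Calcium fluorescence in TRPML1-DL cells induced overnight with Tet: a 110 s read after compound pin addition, then a 110 s antagonist read after challenge with 54-4 at 4 uM final (EC80).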
PINK1 modulator = modulators of PINK1 expression; PINK1 immunofluorescence, high-content cytometry, 24 h; Potency, µM (highest dose often 76.6 µM), without a hit: at the top dose activation (PINK1 increase), actives largely listed as activators; hit rate 0.2% among 410,000; active = well fitted activation curve with a large enough effect; inconclusive = small, poorly fitted or top-dose-only effect; inactive = flat fitted curve, though single readings scatter; cell line not stated here;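 note: potency is the fitted concentration of half-maximal effect; % of control where 0% means no effect; nearly all actives have a fitted effect of over 65% in size; a mitochondrial uncoupler was the plate control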
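Measures PINK1 amount and localization on or inside mitochondria by immunofluorescence. Stable cells get compounds at 5 concentrations for 24 hours before fixation and staining; CCCP controls included.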
* hit, by the source's call; ? = inconclusive; / = not tested or not shown; [ ] = dose if it differs, or a comment.

Values run as follows: D2 agonist	TRPML1 ag	Six1-Eya2 blk	CtBP-E1A blk	TRPML1 inh	PINK1 modulator
> CN(/C=C/C(=C\C=[N+](C)c1ccccc1)OCCCS(=O)(=O)[O-])c1ccccc1
 : 3.6	-0.4	-20	-4	11	0.7%
> O=C1CNC(=S)N1Cc1ccc(F)cc1
 : 0.8	0.1	6	/	-7	1.4%
> O=C(NC1CCC(NC(=O)C(F)(F)C(F)F)CC1)C(F)(F)C(F)F (centres undefined)
 : -0.1	-0.3	1	9	-6	10%[38.3 µM]
> CC1(C)C(=O)Nc2ccccc2N1C(=O)COC(=O)CNS(=O)(=O)c1ccc(F)c(F)c1F
 : 0.8	-1.8	22	/	78	-0.5%
> COc1ccccc1CN1CC(C(=O)NCc2cc(F)cc(C(F)(F)F)c2)CCC1=O (centres undefined)
 : -9.0	-0.5	-3	5	-21	2.3%
> O=C(NC1CC2CCCC(C1)N2C(=S)Nc1ccc(Cl)cc1)C1CC1 (centres undefined)
 : 5.3	-0.2	-5	7	10	2.9%
> COC(=O)N/N=C/c1cn(Cc2ccc(Cl)cc2Cl)c2ccccc12
 : 2.0	3.0	-8	-2	-2	6.1%
> COc1cc(NC(=O)NC2Cc3ccccc3C2)cc(OC)c1
 : -6.6	2.0	14	/	-12	1.2%
> CCOC(=O)c1ccccc1NC(=O)C1COc2ccccc2O1 (centres undefined)
 : -3.9	0.6	33	20	?	6.9%
> Brc1ccc(-c2nn3c(-c4ccccn4)nnc3s2)o1
 : -2.2	-0.1	-77*	-78*	23	4.3%[38.3 µM]
> Cc1cccc(NC(=O)c2nc(-c3ccccc3)n(-c3ccccc3)n2)c1C
 : -2.0	0.3	-18	-14	-3	-1.5%
> CS(=O)(=O)N1CCN(C(=O)c2ccc(Br)s2)CC1
 : -1.6	0.0	3	5	-8	?
> Clc1cccc(-c2csc(Nc3cccnc3)n2)c1
 : -1.2	2.5	-11	-17	-13	4.3%
> Cn1nc(-c2ccccc2)cc1NS(=O)(=O)c1ccc(C#N)cc1
 : -0.3	0.2	-2	6	0	-0.4%
> O=C(Cc1ccc(NC(=O)C2CCN(C(=O)C3CCC3)CC2)cc1)Nc1cccc(C(=O)N2CCCCC2)c1
 : -3.9	-0.1	5	-11	-6	0.1%
> COc1cccc(C2C(C(=O)OCc3ccccc3)=C(C)Nc3ncnn32)c1OC (centres undefined)
 : -0.6	0.8	-3	4	0	8.0%
> Cn1c2ccccc2c2c(C(=O)N3CCN(c4cccc(C(F)(F)F)c4)CC3)cn(C3CCCCC3)c(=O)c21
 : /	-0.1	/	/	3	2.7%
> COc1ccccc1NC(=O)CSc1nnc2c(n1)[nH]c1ccccc12
 : /	-0.6	/	/	8	4.8%
> CCCCNC(=O)Nc1nnc(C(C)(C)C)s1
 : 2.0	-0.4	6	12	0	1.2%
> CCc1nc2ccccc2[nH]1
 : -1.2	1.1	7	6	10	1.4%[38.3 µM]
> CCn1ncc(Br)c1C(=O)Nc1ccc(C(=O)OC(C)C)cc1
 : -1.5	-0.3	6	10	15	-0.7%
> Cc1ccc(S(=O)(=O)NC(=O)C2(C)CCN2C(=O)Cc2cc(F)ccc2F)nc1 (centres undefined)
 : 4.2	0.0	11	7	/	3.5%
> CCCc1nnc(NC(=O)CN2C(=O)c3ccccc3C2=O)s1
 : -3.3	-0.2	3	12	52	2.2%
> Cc1ccc(NC(=O)CSc2ccc(Br)cc2)cc1S(=O)(=O)N1CCOCC1
 : -0.7	3.0	8	-5	11	1.9%
> CCS(=O)(=O)c1nc2ccccc2n1CC(=O)Nc1ccccc1C(=O)OC
 : /	-0.9	/	/	3	1.0%
> COc1ccc2c(c1)c1nnc(SCC(=O)NC3CC3)nc1n2C
 : -4.6	-0.4	-10	?	-17	-0.1%
> CC(C)(C)c1ccc(-n2ncc3c2CCCC3NC(=O)C2(C(N)=O)CC2)cc1 (centres undefined)
 : 4.6	0.7	2	1	-2	0.2%
> O=C(NCCCc1ccccc1)c1nn(-c2ccccc2F)nc1CO
 : /	1.7	/	/	-2	-1.1%
> Cc1nn(-c2ccccc2)c2c1C(c1ccccc1)C(C#N)=C(N)O2 (centres undefined)
 : -1.1	-0.7	-3	-5	0	-1.6%
> O=C(Cc1n[nH]c(=O)[nH]c1=O)N/N=C/CCc1ccccc1
 : -7.4	-0.4	4	/	-13	-1.0%

An excerpt from above in order of count of non-hydrogen atoms, lowest first.
Values run as follows: D2 agonist	TRPML1 ag	Six1-Eya2 blk	CtBP-E1A blk	TRPML1 inh	PINK1 modulator
> CCc1nc2ccccc2[nH]1
 : -1.2	1.1	7	6	10	1.4%[38.3 µM]
> CCOC(=O)c1ccccc1NC(=O)C1COc2ccccc2O1 (centres undefined)
 : -3.9	0.6	33	20	?	6.9%
> CC(C)(C)c1ccc(-n2ncc3c2CCCC3NC(=O)C2(C(N)=O)CC2)cc1 (centres undefined)
 : 4.6	0.7	2	1	-2	0.2%

Looked up one by one from the entries so far:
Values run as follows: D2 agonist	TRPML1 ag	Six1-Eya2 blk	CtBP-E1A blk	TRPML1 inh	PINK1 modulator
> CCn1ncc(Br)c1C(=O)Nc1ccc(C(=O)OC(C)C)cc1
 : -1.5	-0.3	6	10	15	-0.7%
> COc1cccc(C2C(C(=O)OCc3ccccc3)=C(C)Nc3ncnn32)c1OC (centres undefined)
 : -0.6	0.8	-3	4	0	8.0%
> Cn1c2ccccc2c2c(C(=O)N3CCN(c4cccc(C(F)(F)F)c4)CC3)cn(C3CCCCC3)c(=O)c21
 : /	-0.1	/	/	3	2.7%
> Brc1ccc(-c2nn3c(-c4ccccn4)nnc3s2)o1
 : -2.2	-0.1	-77*	-78*	23	4.3%[38.3 µM]
> COc1cc(NC(=O)NC2Cc3ccccc3C2)cc(OC)c1
 : -6.6	2.0	14	/	-12	1.2%

Next part.
Values run as follows: D2 agonist	TRPML1 ag	Six1-Eya2 blk	CtBP-E1A blk	TRPML1 inh	PINK1 modulator
> CC(Oc1ccccc1)C(=O)N1CCN=C1SCc1ccc(F)cc1 (centres undefined)
 : -3.9	0.1	5	/	16	-1.4%
> Cc1onc(-c2c(F)cccc2Cl)c1C(=O)NC(=S)NC1CCSC1=O (centres undefined)
 : -2.7	1.8	-1	18	5	-0.5%
> Cc1cccn2c(=O)c3cc(C(=O)NC(C)(C)C)n(C)c3nc12
 : /	-0.6	/	/	-13	0.0%
> COC(=O)c1cc(S(=O)(=O)N2CCC(C(N)=O)CC2)oc1C
 : -3.4	0.9	4	10	-21	0.7%
> OC1(c2cccs2)CN(c2ccc(Cl)cc2)C2=[N+]1CCCS2 (centres undefined)
 : -4.6	0.3	-1	-2	-11	-0.8%
> N#Cc1c(C(F)(F)F)cc(-c2cccs2)nc1SCc1ccc(F)cc1
 : /	-0.3	/	/	1	0.3%
> CCOc1cc(/C=C(/C#N)C(=O)Nc2ccc(OC)cc2)ccc1OCc1ccc(C(=O)O)cc1
 : -2.6	0.4	-7	?	0	2.1%
> CCCCn1cnc2c([nH]c3ccccc32)c1=O
 : -0.3	0.0	-4	0	8	-0.1%
> COc1ccc(S(=O)(=O)n2nc(OC(=O)c3cccs3)cc2NC(=O)c2cccs2)cc1
 : -1.5	-0.2	0	2	10	1.4%
> O=C(c1cccs1)n1nc(-c2ccccc2)nc1NCc1ccco1
 : -3.3	1.0	3	17	-2	0.5%
> O=C(Cc1ccc(Br)cc1)Nc1ccccc1Cl
 : -2.6	0.8	2	3	-15	5.3%
> COC(=O)c1cnc2ccccc2n1
 : -0.3	0.0	6	9	-1	-1.2%
> Cc1noc(NS(=O)(=O)c2ccc(N3CC(O)=C(c4ccccc4)C3=N)cc2)c1C
 : 0.3	-0.5	6	3	-14	2.1%
> COc1ccc(/C=C/C(=O)N2CCC(c3ccccc3)C2)cc1 (centres undefined)
 : -0.2	2.1	5	2	2	-2.2%
> COCCN1C(=O)CCC1(C)C(=O)NC1CCCC1 (centres undefined)
 : -4.5	-0.5	0	2	34	4.1%
> Cc1ccc(S(=O)(=O)C(C#N)c2nc3ccccc3nc2N2CC(C)OC(C)C2)cc1C (centres undefined)
 : 0.0	6.8	-3	-12	-8	?
> CC1(C)C(=O)C2(CCCC2)C(=O)OC1c1ccco1 (centres undefined)
 : -3.9	-0.9	13	8	-14	-0.4%
> Cc1ccc([C@H]2N[C@]3(CCCN(Cc4ccccc4)C3=O)[C@H]3C(=O)N(Cc4ccccc4)C(=O)[C@@H]23)cc1
 : -5.5	3.3	-2	7	-8	-0.7%
> CCN(CC)C(=O)C1=C(C)N(Cc2ccc(C(C)(C)C)cc2)C(=O)C(CC(=O)NC2CCCCC2)C1 (centres undefined)
 : -7.8	0.0	7	1	10	0.3%
> COCCN(C(=O)c1ccccc1)c1nc(-c2ccc(OC)cc2)cs1
 : -3.1	0.3	1	8	27	0.1%
> CCC(C(=O)OCCOCCN(CC)CC)c1ccccc1 (centres undefined)
 : -6.8	2.8	9	/	56	-1.6%
> CCC(C)(C)NC(=O)C(c1ccc(F)cc1)N(Cc1ccco1)C(=O)c1snc(C(N)=O)c1N (centres undefined)
 : 1.4	2.3	0	45	-9	4.9%[38.3 µM]
> CCN1C(=O)[C@H]2[C@@H](c3ccc(C)cc3)N3C(=O)N(c4cccc(Cl)c4)C(=O)[C@@]3(C)[C@H]2C1=O
 : -1.5	0.3	3	/	-12	0.2%
> NC(=O)CSc1nc2c(oc3ccccc32)c(=O)n1-c1ccccc1F
 : /	-0.3	/	/	10	-0.9%
> CCOc1ccc(NC(=O)c2nn(C)c3c2COc2ccccc2-3)cc1
 : /	1.8	/	/	-5	0.4%
> CCc1ccccc1N(C)C(=O)c1cnc(N2CCOCC2)c2ccccc12
 : /	-0.2	/	/	-12	2.1%
> COc1ccc(NC(=O)c2cc(-c3ccncc3)nc3ccc(Br)cc23)cc1OC
 : 1.9	1.1	-3	7	-1	0.6%
> Cc1c(Cl)cccc1NC(=O)CSc1nncn1-c1ccccn1
 : 1.9	1.7	-5	-3	13	-0.7%
> CC(/C=N/N1CCN(c2ccccc2)CC1)=C\c1ccco1
 : -2.6	1.0	-25	-27	10	11%[38.3 µM]
> CC1(C)CC(NC(=O)C23CCC(C)(C2Br)C3(C)C)CC(C)(C)N1 (centres undefined)
 : -1.1	-0.3	36	4	-5	0.2%
> COc1cc(CNn2nnnc2N)cc(Br)c1OCC(=O)NC(C)(C)C
 : -2.8	-1.0	0	5	-2	-2.1%

Screening results as filed in PubChem BioAssay.
